Screens as filed in PubChem BioAssay.
N370S GC – inhibits or activates N370S mutant glucocerebrosidase. 0.092% of 330,000 active. N370S GC spleen homogenate, 4MU-glucoside fluorescence. P04062. Potency, µM (series often up to 59.4 µM), for inactives: at the top dose activity change, negative = inhibition, most hits filed as inhibitors;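 also: 0% = full enzyme activity and -100% = no enzyme basal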
FEN1 inh – inhibitors of human flap endonuclease 1; P39748; Recombinant FEN1 flap cleavage, fluorescence, 15 min; Potency, µM (top dose mostly 114 µM), for inactives: at the highest dose activity change, negative = inhibition, usual class: inhibitors; 0.35% of 390,000 active; also: nearly all actives have a fitted effect of over 65% in size
Target sequence (P39748 whole entry, looked up): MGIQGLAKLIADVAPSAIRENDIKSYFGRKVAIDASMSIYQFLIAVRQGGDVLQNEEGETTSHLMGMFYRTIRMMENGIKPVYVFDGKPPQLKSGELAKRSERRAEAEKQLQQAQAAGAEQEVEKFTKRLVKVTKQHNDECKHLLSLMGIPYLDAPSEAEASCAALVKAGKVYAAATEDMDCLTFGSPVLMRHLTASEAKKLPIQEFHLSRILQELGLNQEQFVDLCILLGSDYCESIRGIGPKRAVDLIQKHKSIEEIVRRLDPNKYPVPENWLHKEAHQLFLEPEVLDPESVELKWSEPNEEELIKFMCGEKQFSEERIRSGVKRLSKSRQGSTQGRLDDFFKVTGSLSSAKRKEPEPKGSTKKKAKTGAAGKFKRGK
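Enzyme 10 nM, 15 min RT preincubation with compound; start with substrate 50 nM final; reads at 0 and 15 min; qHTS titration, four-parameter Hill fit.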
The depositor's hits bear a star; ? = inconclusive; / = no result given; & = joins results of further samples; [ ] = remark or other dose. Calls follow the shape of the dose curve; as a rule, active = well fitted curve in the direction sought with a large enough effect; inconclusive = small, poorly fitted or top-dose-only effect, or another doubt; inactive = no such curve, though single readings can be large; an effect the other way counts as inactive or inconclusive. Unless noted, % is scaled to controls: 0 for no effect and ±100 for the full control effect; potency is read from the fitted curve at half-maximal effect.

SMILES	N370S GC	FEN1 inh
CCC[C@@H](CN1CCC[C@H]1CN1C(N)=NC[C@H]1CC(C)C)N1C[C@@H]([C@H](C)CC)N(CCc2ccc(Cl)c(Cl)c2)C1=N	/	-21%
Cc1ccccc1NC1=CC(=O)CC(C)(C)C1	2%	-8%
CCOC(=O)N1CC=C2C(C#N)=C(N)C(C#N)(C#N)[C@H](c3cccs3)[C@H]2C1	-1%	4%
O=C1c2cnc3nc(SCc4ccc(Cl)cc4)nn3c2CC2c3ccccc3CCN12 (stereo not given)	10%	8%
Cc1cc(C(=O)OCC(=O)NC2CCCC(C)C2C)c(C)o1 (stereo not given)	/	4%
Cc1ccc(C(=O)NC2CCCCC2)cc1	5%	-2%
CCOC(=O)Nc1ccc(OC)cc1S(=O)(=O)N1CCCCC1	7%	-2%
CCCCCCCC(=O)Nc1cc(C(=O)NCCC)ccc1N1CCC2(CC1)CC(c1cccc(Br)c1)=NO2	2%	7%
O=C(CCc1nnc(C2CCCCC2)o1)NCc1cccc(-n2cccn2)c1	-2%	-9%
CCOC(=O)c1ccc(N2Cc3ccccc3C2=N)cc1	-16%	-3%

Of the compounds above, these have nitrogen in an aromatic ring.
SMILES	N370S GC	FEN1 inh
O=C1c2cnc3nc(SCc4ccc(Cl)cc4)nn3c2CC2c3ccccc3CCN12 (stereo not given)	10%	8%
O=C(CCc1nnc(C2CCCCC2)o1)NCc1cccc(-n2cccn2)c1	-2%	-9%

Next section.
SMILES	N370S GC	FEN1 inh
OC(CNCC1CCCO1)Cn1c2ccccc2c2ccccc21 (stereo not given)	3%	-13%
COc1ccc(OC)c(NC(=O)CC(=O)Nc2ccc3nc4n(c(=O)c3c2)CCCCC4)c1	/	8%
CNC(=O)C(=O)Nc1c(C)cc(C)cc1C	-15%	6%
CCN1CCN(c2ccc(S(=O)(=O)N(CC)CC)cc2[N+](=O)[O-])CC1	-1%	-2%
CCOC(=O)C1CCN(S(=O)(=O)c2cccc(-c3cn4cc(C)ccc4n3)c2)CC1	-11%	-9%
COC(=O)C1=C(C)NC(C)=C(C(=O)OC)C1C(=O)OCC(=O)c1ccc(Br)cc1	/	6%
N#Cc1c(NC(=O)Cn2nc(C(F)(F)F)c3c2CCCC3)sc2c1CCC2	10%	9%
O=[N+]([O-])c1ccc(Nc2ccccn2)c([N+](=O)[O-])c1	12%	11%
CCOc1ccc2nc(Cl)c(C3CC(c4ccccc4)=NN3C(=O)c3cccs3)cc2c1 (stereo not given)	6%	7%
O=C(NNC(=S)Nc1cccc(C(F)(F)F)c1)c1cccc(Cl)c1	2%	-2%
Cc1ccc(C(=O)N[C@H](C(=O)OCC(=O)NC2CCS(=O)(=O)C2)C(C)C)cc1 (stereo not given in full)	-13%	-5%
O=C(NC1CCOC1)c1cc(COc2cccc(C(F)(F)F)c2)on1 (stereo not given)	2%	3%
CCSc1nc(-c2ccc(OC)cc2)nc2c1Cc1c(CO)cnc(C)c1O2	/	14%
Cc1ncsc1CCC(=O)N1CCCC(C(=O)c2ccc3c(c2)OCO3)C1 (stereo not given)	0%	19%
Cc1nn(Cc2c(F)c(F)c(F)c(F)c2F)c(C)c1NC(=O)c1c(-c2ccccc2)nn(-c2ccccc2)c1C	-6%	-6%
O=C(CCSCc1ccc(Cl)cc1)NCCc1ccccc1	-5%	-4%&-7%
CCN(Cc1ccccc1)C(=O)c1cc2c(s1)-c1c(C)cccc1OC2	/	8%
CC(C)(C)OC(=O)N1CCC(c2cc(-c3cccs3)n[nH]2)CC1	19%	-18%
COc1ccc(CN2CCN(C(=O)c3ccco3)CC2)cc1OC	-7%	-1%
Cc1nc(N)ncc1Sc1ccccc1	-5%	1%

Nothing new here: an excerpt of the list.
SMILES	N370S GC	FEN1 inh
Cc1ccc(C(=O)N[C@H](C(=O)OCC(=O)NC2CCS(=O)(=O)C2)C(C)C)cc1 (stereo not given in full)	-13%	-5%
O=C(NC1CCOC1)c1cc(COc2cccc(C(F)(F)F)c2)on1 (stereo not given)	2%	3%
CCSc1nc(-c2ccc(OC)cc2)nc2c1Cc1c(CO)cnc(C)c1O2	/	14%

Following part:
SMILES	N370S GC	FEN1 inh
COc1ccc(-c2c[n+]3c(n2-c2ccc(C)cc2)CCCCC3)cc1	3%	-4%
CCn1c(=O)cc(OCC(=O)N2CCN(c3ccccc3OC)CC2)c2ccccc21	/	8%
Cc1cccn2c(=O)c(/C=C(\C#N)S(=O)(=O)c3ccccc3)c(N3CCN(Cc4ccccc4)CC3)nc12	5%	-13%
CC1(C)Cc2cccc(OCC(=O)Nc3cccnc3Cl)c2O1	7%	1%
COc1cc(OC)c(C2Oc3nc(SC)nnc3-c3ccccc3N2C(C)=O)cc1OC (stereo not given)	3%	-9%
Cc1nnsc1C(=O)N1CCCC(N2CCN(c3ccc(F)cc3)CC2)C1 (stereo not given)	-4%	12%
N#Cc1cc2ccccc2nc1SCc1cccnc1	13%	4%
CCOC(=O)c1c(C)oc2cc(Cl)c(O)c(CN(C)C)c12	-6%	-6%
CNS(=O)(=O)c1ccc(NC(=O)c2ccc(Cl)cc2Cl)cc1	-2%	12%
CN(C)c1cc[n+](CC(=O)c2ccc(-c3ccccc3)cc2)cc1	-13%	-8%
CC(=O)N1c2ccccc2N(Cc2ccc([N+](=O)[O-])cc2)C(=O)C1(C)C	2%	-7%
O=C(CSc1nnc(CNc2ccc(F)cc2)n1Cc1ccco1)N1CCCC1	-6%	-2%
CCCCCC(=O)Nc1ccc(-c2csc(N)n2)cc1	1%	9%
Cc1ccc(C(=O)NCc2occc2C(=O)O)o1	-1%	-2%
O=C(Nc1ccccn1)c1cc(-c2cccc(Cl)c2)nc2ccccc12	4%	-19%
CCOc1ccc(NC(=O)N2CCC(CN3CCc4ccccc4C3)CC2)cc1	/	14%
CC1Cc2ccccc2N1C(=O)c1ccc2snnc2c1 (stereo not given)	5%	-3%
CCc1nc(SCc2cccnc2)[nH]c(=O)c1C	8%	-3%
COc1cc(OC)cc(-c2c(-c3cccs3)c3cc(-c4ccc(CN5CCOCC5)cc4)ccc3n2C)c1	/	-15%
COc1cc(C)c(NC(=O)C(=S)NCCc2ccccc2)cc1C	-1%	-13%
O=C(Cn1cc2c(n1)CCCCC2)NC1CCN(Cc2ccccc2)CC1	-6%	-20%
CCN=C1NN=C(c2cc(C)n(CCc3ccccc3)c2C)CS1	-17%	-7%
Cc1cc(NC(=O)c2noc3c2CCc2ccccc2-3)no1	0%	-3%
CCOc1ccccc1NC(=O)c1ccccc1N(C)S(C)(=O)=O	5%	4%
Cc1ccc(-c2cc(C(=O)N/N=C/c3ccc(F)cc3)n[nH]2)o1	-9%	-6%
CC(=O)Nc1nonc1-c1nc2ccccc2n1CC1CC1	13%	1%
CCCc1cc(=O)[nH]c(Nc2ccc(C(=O)O)cc2)n1	/	-4%
COc1ccc(/C=N/NC(=O)c2cc3c(ccc4ccccc43)o2)c(OC)c1	12%	4%
CCCN1C2CCCC1CC(NC(=O)c1ccccc1OCC)C2 (stereo not given)	-18%	-2%
O=C1C2=C(Nc3ccccc3SC2c2ccc(C(F)(F)F)cc2)c2ccccc21 (stereo not given)	/	-10%

7 entries already listed, sorted by the value under FEN1 inh, falling:
canonical_smiles	FEN1 inh
CCOc1ccccc1NC(=O)c1ccccc1N(C)S(C)(=O)=O	4%
CCCN1C2CCCC1CC(NC(=O)c1ccccc1OCC)C2 (stereo not given)	-2%
CCCc1cc(=O)[nH]c(Nc2ccc(C(=O)O)cc2)n1	-4%
Cc1ccc(-c2cc(C(=O)N/N=C/c3ccc(F)cc3)n[nH]2)o1	-6%
CCN=C1NN=C(c2cc(C)n(CCc3ccccc3)c2C)CS1	-7%
O=C1C2=C(Nc3ccccc3SC2c2ccc(C(F)(F)F)cc2)c2ccccc21 (stereo not given)	-10%
O=C(Cn1cc2c(n1)CCCCC2)NC1CCN(Cc2ccccc2)CC1	-20%

Remaining list, next part
SMILES	N370S GC	FEN1 inh
COCCn1c(=NC(=O)c2ccc(S(=O)(=O)N3CCCc4ccccc43)cc2)sc2cc(S(C)(=O)=O)ccc21	-8%	-1%
CN(C)C=NC(=O)c1cc(C(=O)c2ccc(Cl)cc2Cl)c[nH]1	14%	15%
COc1ccc(S(=O)(=O)N2CCC(C(=O)Oc3c(OC)cccc3OC)CC2)cc1OC	-10%	-8%
Cc1ccsc1C(C(=O)NC(C)(C)C)N(Cc1ccco1)C(=O)c1csnn1 (stereo not given)	4%	-11%
Nc1ccc2c(c1)C/C(=C/c1ccco1)C2=O	-6%	-24%
CCCCn1nc2cc(C(=O)NCCCCc3ccccc3)ccc2c1OCC	14%	-19%
CN(C)CCCNC(=O)C[C@H]1C[C@H](C(=O)N2CCCCC2)[C@@]2(C)c3[nH]c4cc(CCC(=O)N(C)C)ccc4c3CCN2C1=O	/	-16%
COc1ccc(NC(=S)NCc2cccs2)c(OC)c1	3%	20%
CCOc1cc(C(=O)OCC(=O)N(C)c2ccccc2)cc(OCC)c1OCC	-11%	-5%
O=S(=O)(c1ccc(Oc2ccc(S(=O)(=O)N(CCO)CCO)cc2)cc1)N(CCO)CCO	-6%	22%
CN(C)c1ccc(C2N(C(=O)N3CCOCC3)CCN2S(=O)(=O)c2ccccc2)cc1 (stereo not given)	-2%	3%
Cc1ccc(-c2csc3nnc(SCC(=O)N4CCN(Cc5ccccc5)CC4)n23)cc1	-12%	-12%
COc1ccc2[nH]c(C)c(CCN(Cc3cccs3)C(=S)Nc3ccccc3OC)c2c1	-1%	-12%
CC(=O)C1=NOC(CNC(=O)c2c(-c3ccccc3Cl)noc2C)C1 (stereo not given)	2%	-1%
O=C(CSc1nc2ccccc2c(=O)n1CCCN1CCOCC1)Nc1cccc(S(=O)(=O)N2CCCCCC2)c1	-9%	-8%
O=C(Cc1cccs1)NCc1cccs1	6%	7%
CCOc1cc(/C=N/NC(=O)c2cccnc2)ccc1OCc1ccc(C(=O)OC)o1	10%	-10%
CCOC(=O)C1=CN(Cc2cccc(F)c2)S(=O)(=O)N(C)C1c1ccccc1 (stereo not given)	/	5%
Cc1cc(CSc2ccccc2)ccc1NC(=O)c1ccc(CN2CCOCC2)cc1	1%	-5%
O=C(CN(Cc1ccccc1Cl)C(=O)c1ccc(CN2CCOCC2)o1)NCC1CCCO1 (stereo not given)	-2%	-2%
Cc1nc(NC(=O)CSc2ccccc2N)sc1C	-10%	0%
CC(C)N(CCNCC(O)COc1ccc(C(C)(C)c2ccccc2)cc1)C(C)C (stereo not given)	-22%	-3%
COc1cccc(C2=NOC(C(=O)NC3CCCCC3)C2)c1 (stereo not given)	8%	0%
O=C(Nc1ccccc1F)Nc1cc(S(=O)(=O)N2CCOCC2)ccc1N1CCCC1	13%	-6%
O=C(O)CCSc1nnc(COc2cccc3cccnc23)n1-c1ccccc1	-5%	-3%
CC(On1c(-c2ccccc2)nc2ccc(Cl)cc21)C(=O)O (stereo not given)	-9%	-11%
O=c1[nH]nc(Sc2ncnc3sccc23)n1CCc1ccccc1	-1%	0%
S=c1[nH]nc(CSCCOc2ccc(Cl)cc2Cl)o1	5%	12%
CSC1=NC(C)(C)C=C(/C=C/c2ccc(Cl)cc2Cl)N1	2%	14%
CC1(OC(=O)C2CCCC2)C(=O)C=C2C=C(C3CC3)OC=C2C1=O (stereo not given)	2%	/
CNS(=O)(=O)c1ccc(NC(=O)c2csc(C)c2)cc1	-6%	-1%
O=C(NCCc1cccc(F)c1)/C(=C/c1cccnc1)NC(=O)c1ccccc1	-4%	-14%
CCOC(=O)c1c(C)n(-c2ccc(C)cc2)c2ccc(OCC(O)CNCCCO)cc12 (stereo not given)	?	-7%
C=CCNCC(O)COc1ccc(C(C)=O)cc1OC (stereo not given)	-5%	-6%
Nc1nc(N2CCN(C(=O)c3ccco3)CC2)nc2ccc(Br)cc12	-6%	-35%
COc1ccccc1C1(O)CC2CCC(C1)N2S(=O)(=O)c1ccc(C(C)=O)cc1 (stereo not given)	3%	-2%
COc1cccc(-c2cncnc2NCc2ccccc2)c1	4%	/
COc1cc(/C=C/c2nnc3c4ccccc4ncn23)cc(OC)c1OC	7%	-29%
COc1ccc(-n2c(SCC(=O)Nc3cc(C)cc(C)c3)nc3c(oc4ccccc43)c2=O)cc1	/	-1%
COc1ccccc1-n1c(SCC(=O)N2CCCCC2)nc(O)c(Cc2ccccc2)c1=O	3%	21%
O=C(Nc1cccc(NC(=O)N2CCN(c3ccccc3)CC2)c1)N1CCN(c2ccccc2)CC1	3%	4%
CCOc1ccc(Nc2oc(-c3cccs3)nc2C#N)cc1	2%	-4%
COCCNC(=O)Cn1c(-c2cccs2)cc2cc(Cl)ccc21	/	3%
CC(=O)c1cccc(NC(=O)NC2CCCc3ccccc32)c1 (stereo not given)	-12%	16%
COc1cc(C)c(Cl)cc1S(=O)(=O)NCc1ccncc1	11%	/
Cc1ccc(Nc2ncc(C(=O)N3CCN(c4cccc(Cl)c4)CC3)c3ccccc23)cc1Cl	/	-4%
CCCNC(=S)N1CCN(C(c2ccccc2)c2ccccc2)CC1	-2%	?
Cc1cccc(N2C(=O)C(O)=C(C(=O)c3cccs3)C2c2ccc(C(C)C)cc2)n1 (stereo not given)	-2%	-17%
O=C(O)CC(CNS(=O)(=O)c1ccccc1)c1ccccc1 (stereo not given)	1%	51%[activator]
COc1ccc(CCNC(=O)Cc2cccs2)cc1	-1%	-3%

Additional results.
SMILES	N370S GC	FEN1 inh
CCCN(CC(=O)Nc1ccccc1OC)C(=O)CSc1ccc(Br)cc1C	/	-6%
COc1cccc(-c2cc(C(=O)N3CCCCCC3)no2)c1	0%	-1%
Cc1c(C(=O)N2CCc3ccccc3C2)oc2ccc(S(=O)(=O)N3CC(C)CC(C)C3)cc12 (stereo not given)	1%	-4%
O=C(OCc1cnc(Cl)s1)c1ccc(Cl)cc1	-1%	-11%

This is a subset; most or all hits stand in other tables.
